Assay outcomes as filed in PubChem.
HNF4A DNA FP – change in binding of human HNF4 alpha to DNA | P41235 | HNF4a-FITC DNA binding, fluorescence polarization, 1 h | activity change, % at 10 µM | hit rate 0.3% among 360,000; in the data active means activity change above about 30%, passing the limit was not always enough;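 further: controls were the assay level and a saturating level of protein; the project sought stronger binding though the title names inhibitors; some compounds called inactive have numbers as strong as hits; positive values seem to mean higher polarization but the record does not say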
AF4-AF9 inh – inhibitors of human MLL-AF4/AF9 interaction | P42568 | AlphaScreen, biotin-AF4 peptide binding to FLAG-AF9 | inhibition, % at 10 µM | hit rate 0.47% among 350,000 | AID 651704;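 active means every replicate reaching a set inhibition limit, whatever the replicate mean, cut at about 25% in these data; inconclusive means mean inhibition reaches that limit but some replicates miss it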;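 further: 0% = plate neutral control median and 100% = total signal loss; the record names both 10 and 1 µM as test concentration; the first replicate is given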
Target sequence (P42568 whole entry, looked up): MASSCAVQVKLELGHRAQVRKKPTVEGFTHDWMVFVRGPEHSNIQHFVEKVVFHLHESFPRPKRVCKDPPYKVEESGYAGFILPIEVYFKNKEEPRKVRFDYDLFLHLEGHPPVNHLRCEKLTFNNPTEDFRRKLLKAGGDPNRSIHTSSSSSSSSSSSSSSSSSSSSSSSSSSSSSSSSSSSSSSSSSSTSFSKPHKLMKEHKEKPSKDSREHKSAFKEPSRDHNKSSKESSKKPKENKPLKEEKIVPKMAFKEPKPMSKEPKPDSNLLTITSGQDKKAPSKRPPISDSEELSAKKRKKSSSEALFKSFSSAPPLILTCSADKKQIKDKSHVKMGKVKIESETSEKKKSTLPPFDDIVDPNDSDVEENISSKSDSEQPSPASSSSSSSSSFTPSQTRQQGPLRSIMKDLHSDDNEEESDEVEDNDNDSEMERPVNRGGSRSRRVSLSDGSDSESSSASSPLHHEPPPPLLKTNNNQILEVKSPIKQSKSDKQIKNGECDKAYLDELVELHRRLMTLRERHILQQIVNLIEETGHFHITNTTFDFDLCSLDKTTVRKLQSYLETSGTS
UCH37 DUB inh – inhibitors of human deubiquitinating enzyme UCH37; hit rate 0.33% among 330,000; Q9Y5K5; inhibition, % (no concentration beside the values); purified proteasome/UCH37, Ub-AMC cleavage fluorescence; AID 588478;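 active means mean of two replicates above 20%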;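 further: 0% = compound-free wells with enzyme and 100% = wells lacking proteasome; stock transfer was 100 nL into about 20 µL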
Target sequence (Q9Y5K5 whole entry, looked up): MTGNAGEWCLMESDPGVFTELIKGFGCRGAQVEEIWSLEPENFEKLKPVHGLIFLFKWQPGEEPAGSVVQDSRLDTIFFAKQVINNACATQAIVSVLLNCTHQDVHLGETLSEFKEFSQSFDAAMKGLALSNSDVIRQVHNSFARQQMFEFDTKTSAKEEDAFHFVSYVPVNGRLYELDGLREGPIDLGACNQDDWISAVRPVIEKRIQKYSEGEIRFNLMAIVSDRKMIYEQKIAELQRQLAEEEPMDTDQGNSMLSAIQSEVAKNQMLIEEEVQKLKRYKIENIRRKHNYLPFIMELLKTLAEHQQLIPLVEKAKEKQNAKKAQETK
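system = Proteasome-associated human UCH37 deubiquitinase | amount = 0.15 nM proteasome as dispensed | medium = pH 7.4 Tris-HCl (50 mM) with ovalbumin, ATP-MgCl2, DTT | incubation = 30 min preincubation with enzyme, 25 min cleavage at room temperature | detection = AMC fluorescence 355/460 nm | read-out basis = percent inhibition | controls = no-proteasome and no-compound wells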
RanGTP-Impb inh – disruptors of Ran-importin-beta complex formation – biochemical, FRET, CFP-Ran, YFP-importin-beta, homogeneous, primary screen. cell-free CFP-Ran/YFP-importin-beta FRET ratio. inhibition, % (test concentration not listed). hit rate 1.1% among 300,000. AID 2216;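 active means most replicates above 15%; inconclusive means exactly half above 15%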;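 further: 0% = DMSO wells and 100% = Ran loaded with GDP instead of GTP; wells of about 40 µL received 100 nL stock; the first replicate is given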
Vif A3G – HIV-1 Vif–A3G interaction blockers – biochemical, TR-FRET, GST-Vif 1-94, biotin-A3G peptide, dose response retest, primary screen (AID 1117319) | inhibition, %; hits with a dose series show IC50 in µM | TR-FRET GST-Vif / biotin-A3G peptide binding; higher % means a stronger effect; test concentration not given here; strong numbers were not always called active | hit rate 0.57% among 260,000;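 active means above the screen mean plus three standard deviations and confirmed in dose response; inconclusive means results disagree or hit not tested in dose response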;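 further: Vif residues 1-94 fused to GST binding biotinylated APOBEC3G peptide 110-148; 0% = full assay without inhibitor and 100% = GST in place of GST-Vif; retest series ran down from 100 µM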
FGF22 binding – binders of recombinant human FGF22 by thermal shift; calls only at 9.99 µM; hit rate 1.5% among 340,000; Q9HCT0; SYPRO orange fluorescence; percent of sucrose octasulfate shift, DMSO zero;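 active means melting point raised past a set limit in the mean and every replicate; inconclusive means no clear call; three in four hits are not shown here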
Target sequence (Q9HCT0 whole entry, looked up): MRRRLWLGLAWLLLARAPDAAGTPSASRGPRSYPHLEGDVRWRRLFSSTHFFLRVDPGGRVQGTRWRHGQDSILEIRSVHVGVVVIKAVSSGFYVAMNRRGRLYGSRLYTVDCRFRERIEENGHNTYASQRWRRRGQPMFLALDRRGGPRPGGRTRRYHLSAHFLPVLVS
Ecoli growth – E. coli growth inhibition; OD600 absorbance (no concentration beside the values); Escherichia coli growth, OD600, 23 h; stronger effect = lower value; hit rate 0.21% among 330,000;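 active means OD600 absorbance below the run mean of sample wells minus 3.6 SD, in any replicate, cut at about 0.56 in these data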;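 further: stock transfer was 300 nL into about 60 µL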
An asterisk follows results filed as active; i = inactive; ? = inconclusive; nt = not tested or not shown; & = joins results of further samples.

SMILES	HNF4A DNA FP	AF4-AF9 inh	UCH37 DUB inh	RanGTP-Impb inh	Vif A3G	FGF22 binding	Ecoli growth
COc1ccc(S(=O)(=O)Nc2ccccc2OC)cc1NC(=O)c1cc2ccccc2oc1=O	-0.5	nt	1.9	-0.3	nt	nt	0.714
C=CCn1c2c(c3ccccc31)CCC2	5.4	-2.3	nt	nt	nt	i	nt
Cc1cccn2c(N)c(-c3ccccc3)nc12	1.5	nt	-496.1	1.5	3.0%	nt	0.733
S=C(Nc1ccccc1Cl)Nc1ccc(Cl)cc1Cl	1.7	nt	-6.3	5.8	?	nt	0.719
CCc1ccccc1NC(=O)N1CCCC(CCC(=O)N(C)CCc2ccccn2)C1 (stereo unspecified)	24.6	0.5	2.2	5.1	16.4%	i	0.715
COc1ccc(Oc2cn[nH]c2-c2ccc(OC)cc2O)cc1	-0.5	7.6	0.1	4.4	-4.9%	i	0.666
C[C@H](CO)N1C[C@H](C)[C@@H](CN(C)Cc2ccc(-c3ccccc3)cc2)OCc2cnnn2CCCC1=O	-3.0	0.3&3.3	nt	nt	-0.4%	i	nt
O=C(Cn1cnc2c(cnn2-c2ccccc2)c1=O)Nc1cc(S(=O)(=O)N2CCOCC2)ccc1Cl	3.8	nt	1.7	-1.3	nt	nt	0.718
Nc1ccc(CCC(=O)N2CCCC2)cc1	-1.5	-1.9	3.8	5.5	nt	i	0.711
CCC(=O)Nc1ccc2c(c1)nc1n2CCN(C2CCCCC2)C1	4.9	6.1	-67.1	-0.3	10.2%	i	0.696
Cn1cnnc1SCC(C)(C)NS(=O)(=O)c1ccc(Cl)cc1	1.3	-3.2	2.9	0.5	nt	i	0.669
COc1ccc(CCNC(=O)c2ccc3c(c2)NC(=O)C(N2CCOCC2)S3)cc1OC (stereo unspecified)	2.6	nt	-2.4	0.6	4.1%&0.8%	nt	0.745
Cc1ccc([C@H]2N[C@]3(CCCN(Cc4ccc(F)cc4)C3=O)[C@H]3C(=O)N(Cc4ccccc4)C(=O)[C@@H]23)cc1	-7.6	0.6	nt	nt	4.5%	i	nt
CCOC(=O)Cc1csc(SCC(=O)NC2CCS(=O)(=O)C2)n1 (stereo unspecified)	3.8	3.7	2.1	nt	-12.1%	i	0.674
Cc1c(-c2ccccc2)[n+](=O)c2c(n1[O-])CCCC2	0.0	19.7	1.7	2.0	nt	i	0.707
O=C(Cc1ccc(Cl)cc1)Nc1ccccc1C(=O)N1CCCCC1	-1.4	-0.5	0.9	0.1	nt	i	0.709
CCCCN1C[C@H](CSC)[C@@H](CC(=O)NC)C1=O	-2.1	0.1	nt	nt	4.7%	i	nt
Clc1ccc(Oc2nc(N3CCOCC3)nc(N3CCOCC3)n2)cc1	-0.1	nt	-0.6	1.7	-1.9%	nt	0.703
COc1ccc(N=Nc2nc3cc(Br)c(Br)cc3n2C)c(OC)c1	-62.7	nt	6.2	nt	nt	nt	0.674
CC(Sc1ccccc1)C(=O)NCCc1ccccc1 (stereo unspecified)	-2.1	1.4	5.3	4.7	nt	i	0.691
COc1cccc(-c2cc(-c3cccnc3)c(C#N)c(N)n2)c1	0.6	nt	-402.5	-0.2	-37.5%	i	0.72
Cc1ccccc1SCC(=O)OCC(=O)Nc1ccc(N(C)C)cc1	0.9	-1.9	3.1	-2.5	1.7%	i	0.715
CCOC(=O)CN1C(=O)N[C@@H](CCc2ccccc2)[C@@H](C(=O)OC)[C@H]1C	1.8	-3.1	2.6	-1.7	nt	i	nt
Cc1cccc(OCC(=O)Nc2ccc(S(=O)(=O)N3CCN(C)CC3)cc2)c1	-0.8	nt	1.5	0.0	-3.5%	nt	0.711
CCc1ccc(NC(=S)N2CCCC(C(F)(F)F)C2)cc1 (stereo unspecified)	-0.7	-2.4	5.9	2.1	-8.2%	i	0.672
NC(N)=N/N=C(\N=Nc1ccccc1)c1cccc2cccnc12	1.2	7.4	nt	nt	0.9%	i	nt
CCOc1ccc(-c2c(C(=O)N/N=C/c3ccsc3)nnn2-c2nonc2N)cc1	1.1	-3.3	nt	-2.5	nt	i	nt
CN(C)C(=O)c1c2c(nc3ccccc13)CCCC2	-0.5	2.1	nt	1.7	2.1%	i	nt
CN(C)c1cc(Nc2ccc(O)cc2)c([N+](=O)[O-])c2nonc12	-2.7	-3.7	7.4	0.1	nt	i	0.68
CSc1ccc(/C=N/n2c(C3CCCCC3)n[nH]c2=S)cc1	5.0	-0.1	nt	2.2	46.3%	i	nt
O=C(NCCCN1CCc2ccccc2C1)C1CCN(S(=O)(=O)N2CCCC2)CC1	-11.0	9.8	5.4	1.4	4.8%	nt	0.66
Cc1ccc(-c2cc3nc(C)cc(N4CCN(C(=O)c5ccoc5)CC4)n3n2)cc1	-7.5	-1.3	nt	nt	-1.2%	i	nt
Cc1ccc(S(=O)(=O)N2CCN(C(=O)COC(=O)/C=C/c3ccc([N+](=O)[O-])cc3)CC2)c(C)c1	17.5	1.1	3.1	nt	nt	i	0.686
CC(C)C[C@H]1CNC(=O)C(=O)N1C[C@@H]1CCCN1C[C@H](Cc1ccccc1)N1C[C@H](CC(C)C)N(CCc2ccccc2)C(=O)C1=O	-1.7	1.8	nt	nt	nt	i	nt
C=CCN=C1N[C@@H](c2cccc(C(F)(F)F)c2)C(C(=O)OC)=C(C)N1CC	4.8	-9.8	3.9	?	nt	i	nt
COc1ccc(CN2CCN(S(=O)(=O)c3ccc(F)cc3)CC2)cc1OC	-2.1	nt	3.2	0.2	-1.6%	nt	0.685
Cc1ccc(-c2nnn(CCC(=O)NC(C)(C)C)n2)cc1	3.2	nt	-0.2	-2.7	nt	nt	0.652
CCc1ccc(CN(C)C(=O)CCc2nnc(CCc3cccc(OC)c3)o2)nc1	-0.4	-0.3	2.4	-7.0	nt	i	0.726
COC(=O)NCc1ccc2c(c1)OCO2	-3.4	nt	0.5	1.0	0.4%	nt	0.66
Cc1c(C(=O)N2CCN(Cc3ccc4c(c3)OCO4)CC2)cccc1[N+](=O)[O-]	-0.9	nt	0.6	-0.2	9.7%	nt	0.729
CCc1noc(C)c1C(=O)NNC(=O)c1ccc(N(CC)CC)cc1	-0.2	0.0	3.2	nt	-10.8%	i	0.659
Cc1sc2ncnc(N3CCN(S(=O)(=O)c4ccc(F)cc4)CC3)c2c1C	2.8	1.1	-2.2	-3.2	nt	i	0.709
O=c1oc2ccc([N+](=O)[O-])cc2c(N2CCOCC2)c1[N+](=O)[O-]	nt	-2.5	10.6	3.7	-2.7%	i	0.666
Cc1ccc(CNC(=O)c2cc(-c3ccccc3)nn2Cc2cc(C)no2)cc1	4.5	-2.9	nt	-1.6	nt	i	nt
CC(NC(=O)COC(=O)C1CCN(c2ccc(C(F)(F)F)cn2)CC1)c1ccc(F)cc1 (stereo unspecified)	0.9	0.1	-0.5	nt	-7.4%	i	0.654
O=C(c1ccc(-c2ccccc2)cc1)N1CCN(Cc2ccccn2)CC1	0.4	nt	-2.4	nt	16.3%	nt	0.75
COc1cccc(C(=O)Nc2ccc3c(c2)CCCN3C(=O)c2cccs2)c1OC	-3.6	9.1	1.8	4.2	3.9%	i	0.673
Cc1ccc(NC(=S)NNC(=O)C2CC2c2ccc(C)cc2)cc1 (stereo unspecified)	1.2	nt	2.1	0.1	5.5%	nt	0.681

Single records, as listed above. Values in the order: HNF4A DNA FP, AF4-AF9 inh, UCH37 DUB inh, RanGTP-Impb inh, Vif A3G, FGF22 binding, Ecoli growth
Shown for COC(=O)NCc1ccc2c(c1)OCO2 → -3.4, nt, 0.5, 1.0, 0.4%, nt, 0.66
Shown for CCc1noc(C)c1C(=O)NNC(=O)c1ccc(N(CC)CC)cc1 → -0.2, 0.0, 3.2, nt, -10.8%, i, 0.659

More structures.
SMILES	HNF4A DNA FP	AF4-AF9 inh	UCH37 DUB inh	RanGTP-Impb inh	Vif A3G	FGF22 binding	Ecoli growth
O=C(NCc1ccccn1)C(=O)NCc1ccccn1	4.7	-0.2	4.5	?	5.1%	i	0.683
CCn1c(COc2ccccc2)nnc1SCC(=O)C(C)(C)C	2.2	nt	-0.6	0.2	2.2%	nt	0.697
O=C(NCc1nnc(SCC(=O)N2CCCCC2)o1)c1c(F)cccc1Cl	-0.8	-5.0	5.9	1.1	nt	i	0.662
COc1ccc(CNC(=O)C(c2ccc(C)o2)N(C(=O)c2snc(C(N)=O)c2N)c2ccccc2OC)cc1 (stereo unspecified)	-1.2	-0.2	-48.9	6.0	nt	i	0.692
O=C(Nc1ccccc1F)NC1CCN(Cc2nnnn2Cc2ccc(F)cc2)CC1	-3.2	nt	1.6	?	8.7%	nt	0.668
Cc1cccc(NC(=O)NCCc2ccc(Cl)cc2)c1	0.4	-0.1	3.1	5.7	nt	nt	0.679
Nc1cc2c(cc1Br)-c1ccc(F)cc1C2O (stereo unspecified)	0.8	-28.0	5.1	nt	-9.1%	i	0.675
CCCCC(=O)NS(=O)(=O)c1ccc(NS(C)(=O)=O)cc1	2.5	0.9	-1.9	-2.7	-5.7%	i	0.694
CCN(C(=O)[C@@H]1CCCN1C(=O)c1cccs1)c1nc2cc(Cl)ccc2s1	-5.1	nt	2.9	3.3	nt	nt	0.677
Cc1sc2ncn(CC(=O)NCCCC(=O)N3CCN(c4ccccc4)CC3)c(=O)c2c1C	0.3	nt	1.6	-2.2	-7.9%	nt	0.716
S=C(NCc1ccco1)Nc1ccc(Oc2ccc(Cl)cc2)cc1	0.5	3.5	4.7	-1.8	nt	nt	0.664
COc1ccccc1/C=N/Nc1nc(C)cc(=O)[nH]1	2.1	0.6	nt	nt	3.1%	i	nt
CC1CCN(CCOc2ccc(C(=O)c3ccccc3)cc2)CC1	-0.8	1.1	5.3	?	1.0%	i	0.652
O=C(Nc1cccc(S(=O)(=O)NC2=NCCC2)c1)c1cc(-c2ccco2)nc2ccccc12	-50.7	7.2	-154.9	-6.1	-0.3%	i	0.688
CC(C)CCN(C(=O)CNC(=O)c1ccco1)C(C(=O)NC1CCCCC1)c1ccco1 (stereo unspecified)	5.0	nt	1.8	?	-2.7%	nt	0.718
COc1cc(NS(=O)(=O)c2ccc(NC(=O)COc3ccc(C)cc3C)cc2)nc(OC)n1	2.3	nt	1.5	-3.0	1.3%	nt	0.689
COc1ccc(NC(=O)CCn2cccc2)cc1	0.6	nt	2.9	0.6	-3.0%	nt	0.729
CCOC(=O)COc1ccc(C2NC(C(=O)O)CS2)cc1 (stereo unspecified)	-1.7	nt	1.4	3.1	-5.0%	nt	0.702
COc1ccc(COc2cc(-c3cccc(OC)c3)nc3ccc(NC(=O)C(C)C)cc23)cc1	-2.7	-4.9	-1.2	1.5	nt	i	0.807
Cc1ccc(C(C[N+](=O)[O-])c2c(-c3ccccc3O)[nH][nH]c2=O)cc1 (stereo unspecified)	0.3	nt	-19.4	-3.0	13.3%	nt	0.515*
Cc1ccc(NC(=O)c2ncn(CC(=O)NCc3ccccc3)n2)cc1C	0.6	-1.8	0.7	nt	4.6%	i	0.721
Cc1cccc(N2CCN(C(=O)c3cn(C)c(=O)c4c3c3ccccc3n4C)CC2)c1C	-2.3	4.8	-16.4	0.5	-0.5%&-4.2%	i	0.7
CCOC(=O)C(C)Oc1cccc2c(=O)n(CC(=O)NCc3ccc4c(c3)OCO4)ccc12 (stereo unspecified)	2.2	0.5	-0.9	3.7	1.0%	i	0.73
CCc1nc(-c2ccccc2)cc(=O)[nH]1	1.9	0.3	1.1	-0.3	2.3%	i	0.674
CN(C)S(=O)(=O)c1ccc(Cl)c(NC(=O)COC(=O)CCSc2ccccc2)c1	2.0	nt	7.4	2.7	1.2%	nt	0.734
O=C(NCc1ccccc1)C1=C[C@@H](C2CC2)C[C@@H](OCCCCO)O1	-6.5	-4.7&-1.2	4.9	-3.3	nt	i	nt
Cc1nc2ccc(NS(=O)(=O)c3ccc(F)c(F)c3F)cc2s1	2.8	-23.1	3.5	nt	nt	i	0.723

An excerpt; count on the stated rates, not on these rows.
